Screening data as filed in PubChem.
Platelet DG rel – modulates dense granule release in human platelets; 300,000 compounds, 0.22% hits; human platelet-rich plasma, SFLLRN dense granule ATP release, luminescence; inhibition, %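 (compounds screened at 7.5 µM in platelet-rich plasma)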;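 active = mean replicate score, as percent of positive control, at or above 50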
KCNK3 inh – human KCNK3 channel inhibition, primary screen; O14649; CHO-KCNK3 thallium flux, FluxOR fluorescence; stronger effect = lower value; B-score at 10 µM; 340,000 compounds, 0.84% hits; AID 602410;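 active = B-score under library mean minus 4 SD, starting fluorescence ratio at most library mean plus 5 SD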;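 also: more negative B-score means stronger inhibition of thallium flux through KCNK3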
hERG protect – shields human hERG channel from block by proarrhythmic agents; activation (rescue from dofetilide block), less the hit threshold, % at 10 µM; CHO-hERG, FluxOR thallium flux, dofetilide IC70 present; 310,000 compounds, 0.51% hits;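 active = activation above the mean of controls blocked by dofetilide plus 5 SD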;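 also: thallium influx through hERG after potassium depolarization seen as dye fluorescence rise; in these data hits start at about 4.7%; inactives centre near -7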
TRPC4 agonist – opens the mouse TRPC4 cation channel. Q9QUQ5. HEK293 TRPC4beta/mu-opioid, Fluo4 calcium fluorescence; stronger effect = higher value. B-score at 10 µM. 310,000 compounds, 0.49% hits. AID 2237;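 active = B-score above 5 SD of library B-scores, and initial fluorescence ratio not above library mean plus 5 SD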;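 also: positive B-score marks a calcium rise read as TRPC4 activation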
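Assay system – TRPC4beta and mu-opioid receptor HEK293 stable cells · Measured by – Fluo4 fluorescence, kinetic · Schedule – dye loading 45 min room temperature, 110 s kinetic read · Read-out – B-scored integrated calcium fluorescence ratio · Controls – buffer and maximal DAMGO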
TRPC4 inh – TRPC4 (mouse) channel inhibition; Q9QUQ5; HEK293 TRPC4beta/mu-opioid, DAMGO-evoked Fluo4 calcium flux; stronger effect = lower value; B-score at 10 µM; 300,000 compounds, 0.39% hits; AID 2247;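 active = B-score over 3 SD under the library average, no early fluorescence shift, positive overall ratio signal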
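Assay system – HEK293 line stably carrying TRPC4beta and mu-opioid receptor · Doses – single dose · Detection – Fluo4 calcium-dye fluorescence, kinetic read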
KCNQ1 pot – human KCNQ1 channel potentiation or activation; P51787; CHO-K1 KCNQ1, thallium flux FluxOR fluorescence; stronger effect = higher value; B-score at 10 µM; 310,000 compounds, 0.35% hits;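 active = fluorescence ratio B-score, a plate-corrected score, at least three library SD, with initial intensity B-score within 5 SD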
Target sequence (P51787 whole entry, looked up): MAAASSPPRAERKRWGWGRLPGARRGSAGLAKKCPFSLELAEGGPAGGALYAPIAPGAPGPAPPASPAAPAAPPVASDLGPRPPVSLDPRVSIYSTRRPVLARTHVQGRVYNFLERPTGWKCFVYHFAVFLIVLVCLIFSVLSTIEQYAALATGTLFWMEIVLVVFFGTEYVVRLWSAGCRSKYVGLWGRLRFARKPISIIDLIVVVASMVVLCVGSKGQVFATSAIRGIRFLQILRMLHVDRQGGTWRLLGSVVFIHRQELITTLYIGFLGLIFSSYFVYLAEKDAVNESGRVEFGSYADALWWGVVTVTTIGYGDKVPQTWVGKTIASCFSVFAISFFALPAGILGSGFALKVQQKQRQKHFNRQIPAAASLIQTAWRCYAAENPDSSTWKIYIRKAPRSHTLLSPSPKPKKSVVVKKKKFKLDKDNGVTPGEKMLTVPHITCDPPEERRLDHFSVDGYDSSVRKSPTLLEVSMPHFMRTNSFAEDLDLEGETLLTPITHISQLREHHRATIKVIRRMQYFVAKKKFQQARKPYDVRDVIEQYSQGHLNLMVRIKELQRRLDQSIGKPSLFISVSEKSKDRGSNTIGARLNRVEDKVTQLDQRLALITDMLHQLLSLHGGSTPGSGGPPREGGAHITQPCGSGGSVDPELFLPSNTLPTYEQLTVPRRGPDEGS
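Assay system: CHO-K1 cells stably expressing KCNQ1; Medium: assay buffer with matched DMSO; Also added: K+/Tl+ depolarizing stimulus; Dosing: single dose; Timing: dye 90 min, compound 20 min, room temperature; Measured by: kinetic FluxOR thallium fluorescence, 10-s 1-Hz baseline, 110-s post-stimulus read; Read-out: peak-minus-minimum fluorescence over initial fluorescence, negative-control normalized, B-scored.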
TRPC4 potent – TRPC4 (mouse) allosteric potentiation; HEK293 TRPC4beta/mu-opioid, DAMGO EC20, Fluo-4 Ca2+ flux; stronger effect = higher value; Q9QUQ5; B-score at 10 µM; 310,000 compounds, 0.42% hits; AID 2227;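 active = B-score of calcium response area above 5 SD of library B-scores, with initial fluorescence ratio within 5 SD of library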;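 also: B-score of integrated fluorescence ratio over time as area under calcium response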
KCNQ1 block – inhibitors of human KCNQ1 potassium channel; CHO-K1 KCNQ1, FluxOR thallium flux fluorescence; stronger effect = higher value; B-score at 10 µM; 310,000 compounds, 1.3% hits; AID 2642;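 active = compounds whose thallium flux B-score, printed positive for inhibition, exceeds three library SD while starting fluorescence stays within three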;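 also: channel opened by potassium depolarization with thallium stimulus after 20 min compound exposure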
PolyA inhibitor – yeast polyadenylation inhibition. 300,000 compounds, 0.02% hits. calls only at 12 µM. S. cerevisiae SKY197-pL101 polyadenylation reporter, beta-gal luminescence; efflux-impaired pdr1/pdr3 knockout yeast; score 100 = 6 SD above DMSO;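 active = lowest replicate activity score at least 50, where 100 means six control SD above control mean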;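 also: yeast exposed to compound for 9 h at 30 °C; higher score means more reporter readthrough which indicates perturbed polyadenylation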
KCNK9 inh – inhibitors of human KCNK9 two-pore domain potassium channel. Q9NPC2. HEK293 KCNK9, FluxOR thallium flux fluorescence; stronger effect = lower value. B-score at 10 µM. 310,000 compounds, 1.2% hits. AID 488922;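 active = ratio B-score over 3 SD below the library mean, with starting fluorescence within 5 SD of its mean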;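 also: negative B-score means less thallium flux so channel inhibition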
The depositor's hits bear a star; i = inactive; · = no result given. These rows are one share of the data (hit frequency here may not be typical).

SMILES | Platelet DG rel | KCNK3 inh | hERG protect | TRPC4 agonist | TRPC4 inh | KCNQ1 pot | TRPC4 potent | KCNQ1 block | PolyA inhibitor | KCNK9 inh
O=C(O)c1ccc2c(c1)S(=O)(=O)c1ccccc1C2=O | 3.5 | i | -6.0 | i | i | i | i | i | i | i
COc1ccc(/C=C2/CCOC2=O)cc1 | 5.1 | i | -3.1 | i | i | i | i | i | i | i
CC(C)[C@H](CO)Nc1nc(NCc2ccc(S(N)(=O)=O)cc2)c2ncn(C(C)C)c2n1 | 2.7 | i | -4.3 | i | i | i | i | i | i | i
COc1ccc(CNC(=O)C2CC(c3ccc(OC)cc3)=NO2)cc1 (stereo not drawn) | -8.0 | i | -6.5 | i | i | i | i | i | · | i
CCOC(=O)C1CCN(C(=O)CCCNC(=O)Cn2cnc3sc(C)c(C)c3c2=O)CC1 | -3.1 | i | -1.4 | i | i | i | i | i | i | i

Full records, quoted from the list. Order of screens: Platelet DG rel, KCNK3 inh, hERG protect, TRPC4 agonist, TRPC4 inh, KCNQ1 pot, TRPC4 potent, KCNQ1 block, PolyA inhibitor, KCNK9 inh
CCOC(=O)C1CCN(C(=O)CCCNC(=O)Cn2cnc3sc(C)c(C)c3c2=O)CC1 is listed with -3.1, i, -1.4, i, i, i, i, i, i, i
O=C(O)c1ccc2c(c1)S(=O)(=O)c1ccccc1C2=O is listed with 3.5, i, -6.0, i, i, i, i, i, i, i

Limited to TRPC4 agonist and KCNK9 inh (two entries from above):
SMILES,TRPC4 agonist,KCNK9 inh
O=C(O)c1ccc2c(c1)S(=O)(=O)c1ccccc1C2=O,i,i
COc1ccc(/C=C2/CCOC2=O)cc1,i,i

Ordered by value in Platelet DG rel (lowest first): some entries from above
molecule,Platelet DG rel
COc1ccc(CNC(=O)C2CC(c3ccc(OC)cc3)=NO2)cc1 (stereo not drawn),-8.0
CC(C)[C@H](CO)Nc1nc(NCc2ccc(S(N)(=O)=O)cc2)c2ncn(C(C)C)c2n1,2.7
COc1ccc(/C=C2/CCOC2=O)cc1,5.1

Reprinted at random: two compounds from above
SMILES | Platelet DG rel | KCNK3 inh | hERG protect | TRPC4 agonist | TRPC4 inh | KCNQ1 pot | TRPC4 potent | KCNQ1 block | PolyA inhibitor | KCNK9 inh
CC(C)[C@H](CO)Nc1nc(NCc2ccc(S(N)(=O)=O)cc2)c2ncn(C(C)C)c2n1 | 2.7 | i | -4.3 | i | i | i | i | i | i | i
CCOC(=O)C1CCN(C(=O)CCCNC(=O)Cn2cnc3sc(C)c(C)c3c2=O)CC1 | -3.1 | i | -1.4 | i | i | i | i | i | i | i
